# Assay outcomes deposited in PubChem BioAssay by National Center for Advancing Translational Sciences (NCATS).
# AmpC nodet inh – blocks E. coli AmpC beta-lactamase in absence of detergent | Potency, µM (highest dose often 28.7 µM), inactives show top-dose activity change, negative = inhibition | AID 585 | AmpC nitrocefin hydrolysis, absorbance 480 nm, no detergent; potencies from a single point are estimates | P00811 | 71,000 tested, 1.8% active; active = falling curve, for most hits resting on a single point; inconclusive = weak or doubtful change; inactive = flat or rising curve; note: % of control where 0% means no effect; about half of the hits show no inhibition at the top dose; a quarter of the inactives give rising signals
# Target sequence (P00811 whole entry, looked up): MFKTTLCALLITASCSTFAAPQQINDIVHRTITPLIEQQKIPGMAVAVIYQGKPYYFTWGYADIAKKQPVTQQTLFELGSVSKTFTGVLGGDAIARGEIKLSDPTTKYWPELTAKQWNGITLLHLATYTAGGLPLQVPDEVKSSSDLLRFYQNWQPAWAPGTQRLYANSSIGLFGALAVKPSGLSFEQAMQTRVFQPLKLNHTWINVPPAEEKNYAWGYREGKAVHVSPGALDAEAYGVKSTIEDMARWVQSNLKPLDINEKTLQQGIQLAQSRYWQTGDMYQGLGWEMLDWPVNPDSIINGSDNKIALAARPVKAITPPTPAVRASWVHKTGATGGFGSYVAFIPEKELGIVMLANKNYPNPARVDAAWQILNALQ
#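 Enzyme, pH 7.0 phosphate. Compound titrations were pre-incubated with AmpC for 15 min at room temperature before nitrocefin (stock 800 uM) addition; product formation was recorded at 480 nm every 20 s for 4 min.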
# Numbers without * were called inactive; u = inconclusive; [ ] = remark or other dose. Potency is the fitted concentration of half-maximal effect. Only part of the results is shown; count on the stated rates, not on these rows.
SMILES,AmpC nodet inh
CC(C)C(NS(=O)(=O)c1ccc2c(c1)oc(=O)n2C)C(=O)N1CCN(C2CCCCC2)CC1 (centres undefined),17%
CC(=O)OCCN1C(=O)c2cccnc2C1=O,-3%
COc1ccc(OCC(=O)Nc2ccccc2OC)cc1,4%
Cc1ccc(S(=O)(=O)n2nc(OC(=O)c3ccco3)cc2N)cc1,-13%
O=C1CC(N2CCOCC2)C(=O)N1CCN1C(=O)CC(N2CCOCC2)C1=O (centres undefined),6%
O=C1c2cccnc2-c2ncccc21,-4%
O=C(Nc1ccccc1)c1cccc(N2C(=O)CCC2=O)c1,-12%
Cc1ccc2nc3c(cc(C#N)c(=O)n3CCN3CCOCC3)c(=O)n2c1,-8%
O=C(NCN1C(=O)C2C3C=CC(C3)C2C1=O)OC1CCCCC1 (centres undefined),2%
CN1[C@@H]2CC(OC(=O)[C@@H](CO)c3ccccc3)C[C@H]1[C@H]1O[C@H]12 (some centres undefined),-4%
CS(=O)(=O)N(CC(=O)NCCSC1CCCCC1)c1ccc2c(c1)OCO2,-6%
Cc1ccc(S(=O)(=O)N2CCC(C(=O)N3CCC[C@H]3C(=O)NCc3ccccc3)CC2)cc1,72%
COc1ccc2c(c1)CCc1cc(C(=O)N3CCN(c4ccc(N5CCOCC5)nn4)CC3)sc1-2,109%
Cc1ccc(S(=O)(=O)NCCNC(=O)C2CCCNC2=O)cc1 (centres undefined),-1%
CCOC(=O)C1=C(N)OC2=C(C(=O)CCC2)C12C(=O)N1c3c(ccc(C)c32)C(C)=CC1(C)C (centres undefined),119%
COc1cc(SC)ccc1C(=O)OC1CCOC1=O (centres undefined),-3%
O=C(COC(=O)C1CCCCC1)Nc1ccc(N2CCCCC2)cc1,52%
O=C(CSc1n[nH]c(-c2ccccc2)n1)c1ccc(O)c(O)c1,u
CC(C)N1CC23C=CC(O2)C(C(=O)OCc2ccccc2)C3C1=O (centres undefined),8%
Cc1ccc(C(=O)N(c2ccccn2)C(C)c2ccco2)cc1 (centres undefined),9%
CC(=O)Oc1cccc(N2C(=O)C3C4C=CC(C4)C3C2=O)c1 (centres undefined),10%
CCn1ncc(Br)c1C(=O)Nc1cc(C)ccc1F,22%
NS(=O)(=O)c1ccc(C(=O)O)cc1,1%[5.75 µM]
COc1cc(C(=O)N2CCC(c3nc(-c4cccnc4)no3)CC2)cc(OC)c1OC,36%
COc1ccccc1CN(C(=O)c1ccco1)C(C(=O)NC1CCCC1)c1ccncc1 (centres undefined),44%
N#Cc1c(NC(=O)CSc2nnc(-c3ccncc3)n2CC2CCCO2)sc2c1CCCC2 (centres undefined),137%
CC(=O)NC1C2CN3CCN(C2)CC1(Cc1ccccc1)C3 (centres undefined),-7%
CC(=O)N1C2CCCCC2S[C@H]2CCCCC21 (some centres undefined),50%
Cc1nc(NC2=NCN(Cc3cccnc3)CN2)nc2c(C)cccc12,6%
NC(=O)c1ccsc1NC(=O)COc1ccccc1,-5%
O=C(Cn1cnc2c(nnn2Cc2ccccc2)c1=O)N1CCCc2ccccc21,4%
O=C(NCc1cccs1)C1CCCN1C(=O)Nc1ccccc1 (centres undefined),6%
CCc1nc(NCCN2CCOCC2)c2oc3ccccc3c2n1,10%
Cc1cccc(NC(=O)Cn2c(C)c(C#N)c3ccccc32)c1C,-16%
CCO/C=N/c1c(C#N)c2c(c(=S)n1C)COC(C)(C)C2,6%
CSc1nnc2c(n1)OC=Nc1ccccc1-2,-9%
COc1ccccc1NC(=O)c1ccc(N)cc1,-9%
O=C(Nc1ccc(F)cc1)C1CCCCC1,-4%
Cc1cc(NS(=O)(=O)c2ccc(NC(=O)NC3CCCCC3)cc2)no1,-10%
Clc1cccc2c1CN(C1=NCCN1)C2,32%

# 6 entries picked at random from the list so far, as already listed:
SMILES,AmpC nodet inh
CCOC(=O)C1=C(N)OC2=C(C(=O)CCC2)C12C(=O)N1c3c(ccc(C)c32)C(C)=CC1(C)C (centres undefined),119%
COc1cc(SC)ccc1C(=O)OC1CCOC1=O (centres undefined),-3%
CCc1nc(NCCN2CCOCC2)c2oc3ccccc3c2n1,10%
CC(=O)OCCN1C(=O)c2cccnc2C1=O,-3%
COc1ccc(OCC(=O)Nc2ccccc2OC)cc1,4%
CN1[C@@H]2CC(OC(=O)[C@@H](CO)c3ccccc3)C[C@H]1[C@H]1O[C@H]12 (some centres undefined),-4%

# The list continues:
SMILES,AmpC nodet inh
COc1ccc2[nH]cc(CCNc3ccnc(-c4ccc(C(=O)N(C)C)cc4)n3)c2c1,59%
COc1ccc(-c2n[nH]c(C)c2-c2ccc(OC)c(OC)c2)c(O)c1,-8%
Nc1c(S(=O)(=O)c2cccc(Cl)c2)c2nc3ccccc3nc2n1/N=C/c1ccc(O)c(O)c1,u
CCC(=O)Nc1ccc2nc(SCC(=O)N3CCCC3)sc2c1,-4%
CCOc1ccc(OCc2ccc(C(=O)N3CCCC3)o2)cc1,62%
COc1cccc(N2CCN(Cc3nc(N)nc(Nc4ccccc4)n3)CC2)c1,46%
COC(=O)Cn1ncn2c(cc3oc(C)cc32)c1=O,-14%
Cc1cc(C)n2cc(CSCc3ccco3)nc2n1,-4%
Cc1cccc(-n2ncc3c(NCc4cccs4)ncnc32)c1,11%
Cn1nnnc1P(=O)(c1ccccc1)c1ccccc1,-3%
C[C@H](Br)C(=O)c1ccc2cc(Br)c3ccccc3c2c1,16%[5.75 µM]
CCCCCCCCC(=O)NCc1ccc(O)c(OC)c1,10%
CCCCCCS(=O)Cc1ccccc1 (centres undefined),10%
O=C(c1cccs1)N1CCN(C(=O)c2ccco2)c2ccccc2C1,2%
CCOC(OCC)P(=O)(c1ccccc1)c1ccccc1,19%
O=C(COc1ccc(S(=O)(=O)NC2CCCCC2)cc1)N1CCN(c2ccc(F)cc2)CC1,51%
COc1ccccc1N1CCN(CCN(C(=O)C2CCCCC2)c2ccccn2)CC1,62%
CCOC(=O)Cn1nnc(-c2cccc(OC)c2)n1,-7%
CC(C)N(Cc1nc(-c2ccccc2)no1)C(=O)CN1C(=O)c2ccccc2C1=O,71%
COc1cc(NS(=O)(=O)c2ccc(F)cc2)c(OC)cc1NC(C)=O,8%
N#CC1=C(N)Oc2c(ccc3cccnc23)C1c1cccnc1 (centres undefined),-10%
Cc1ccc(Cn2nnc3c(=O)n(CC(=O)OCc4ccccc4)cnc32)cc1,2%
Cc1cccc(C)c1NC(=O)C(c1ccccc1)N1CCN(C(=O)c2ccco2)CC1 (centres undefined),44%
CCCCN=Cc1c(O)n(-c2c(C)cc(C)cc2C)c(=O)[nH]c1=O,22%
CN(C)S(=O)(=O)n1cnc2ccccc21,6%
CCOC(=O)N1CCN(C(=O)C2CCN(S(=O)(=O)N3CCCC3)CC2)CC1,12%
CC(C)CC1N=C2c3ccccc3N=C(SCc3cc(=O)n4ccccc4n3)N2C1=O (centres undefined),64%
CCc1c(C)nc(N)nc1OCC(F)(F)C(F)F,6%
CCN(CC)CCN=Cc1c(O)n(CCC2=CCCCC2)c(=O)[nH]c1=O,-5%
O=C(NCc1cccs1)Nc1cccs1,-13%
CCOC(=O)c1ccc(N2C(=O)CC(N3CCN(C/C=C/c4ccccc4)CC3)C2=O)cc1 (centres undefined),126%
O=C(Nc1ccc2c(c1)nc1n2CCN(Cc2ccccc2)C1)c1cccs1,9%
CCOc1cccc(/C(O)=C2/C(=O)C(=O)N(CCOC)C2c2ccncc2)c1 (centres undefined),-7%
CCOC(=O)CC(=O)Nc1ccccc1C(=O)O,0%
COc1ccc(Oc2ncnc3c2ncn3Cc2ccccc2)cc1,24%
O=C(Cn1cnc2ccccc2c1=O)c1ccc2c(c1)OCCO2,-5%
CCOC(=O)c1c(C)c(-c2ccccc2)n(CC(=O)N2CCCC2)c1C,120%
N#CC1=C(N)C(C#N)(C#N)[C@H](c2ccoc2)[C@H]2CN(Cc3ccccc3)CC=C12,4%
COCCOC(=O)c1c(N)n(Cc2ccc(OC)cc2)c2nc3ccccc3nc12,114%
CCN(CC)CCCN1C(=O)C(O)=C(C(=O)c2cccs2)C1c1ccccn1 (centres undefined),-2%

# Shown as labelled records: entries from further up.
mol: CCOc1cccc(/C(O)=C2/C(=O)C(=O)N(CCOC)C2c2ccncc2)c1 (centres undefined)
  AmpC nodet inh: -7%
mol: COc1ccc(Oc2ncnc3c2ncn3Cc2ccccc2)cc1
  AmpC nodet inh: 24%
mol: CCOC(=O)c1c(C)c(-c2ccccc2)n(CC(=O)N2CCCC2)c1C
  AmpC nodet inh: 120%
mol: CCN(CC)CCCN1C(=O)C(O)=C(C(=O)c2cccs2)C1c1ccccn1 (centres undefined)
  AmpC nodet inh: -2%

# Other compounds follow:
SMILES,AmpC nodet inh
Nc1ccc(Cl)cc1[N+](=O)[O-],-5%
CCNC(=O)Cc1ccc(NS(=O)(=O)c2ccc(F)cc2)cc1,-12%
Cc1ccc2ccc3cccc4ccc1c2c34,-6%
CCOc1ccc(CCNc2nc3c(c(=O)n(C)c(=O)n3C)n2CC)cc1OCC,52%
N#CC1=C2SCN(Cc3ccccc3)CN2C(=O)CC1c1ccccc1F (centres undefined),-1%
CCCn1c(=O)c2c(c3ccccc31)OC(C)C(=O)N2 (centres undefined),9%
CCN(CC(=O)N1CCCCCC1)S(=O)(=O)c1ccc(Cl)cc1,13%
O=C(O)Cn1cccc1C(=O)c1ccccc1,-13%
O=c1[nH]ncc2ccccc12,-3%
COc1cccc(NC(=O)Cc2nnc(SCC(=O)c3ccccc3)n2C)c1,26%
CC(=O)Nc1cc(C(=O)O)ccc1S(=O)(=O)c1ccc(Cl)cc1,-9%
Cc1ccc(N2CC(C(=O)Nc3cccc(F)c3)CC2=O)cc1 (centres undefined),0%
Cn1c(Cc2cccs2)nnc1SC/C=C/c1ccccc1,7%
CCOC(=O)c1nnn(-c2nonc2N)c1-c1ccc(OC)cc1,-6%
Cc1ccnc(SCCn2c(N3CCN(C)CC3)nc3c2c(=O)[nH]c(=O)n3C)n1,3%
COc1ccc(N=CC2=C(O)CC(C)(C)CC2=O)cc1,3%
COc1ccc(N(C)S(=O)(=O)c2cccc3cccnc23)c(OC)c1,9%
CN1CCN(S(=O)(=O)c2ccc3[nH]cc(C(=O)O)c(=O)c3c2)CC1,-10%
CCOc1cc(S(=O)(=O)n2nc(C)cc2C)ccc1F,27%
CCC(C)(C(=O)NC1CCCC1)N(Cc1cccs1)C(C)=O (centres undefined),14%
CN1CCC[C@H]1c1cccnc1,-5%
Cn1c(=O)oc2cc(S(=O)(=O)NC3CCN(Cc4ccccc4)CC3)ccc21,11%
C[C@@]12C(=O)OC(=O)[C@@]1(C)[C@@H]1CC[C@@H]2O1,-1%
N#CC1=C(N)OC(c2ccccc2)=C(C#N)C1c1ccc2c(c1)OCO2 (centres undefined),-20%
CN(CCc1ccc(Cl)c(Cl)c1)CCN1CCCCCC1,28%
O=C(OCc1nnc(-c2ccc(Cl)cc2)o1)c1ccncc1,16%
CCOC(=O)c1cc2sccc2n1CC(=O)N1c2ccccc2CC1C (centres undefined),16µM*[single pt active]
Cc1ccccc1-c1ccc(Nc2ccc(N3CCOCC3)cc2)nn1,35%
O=C(O)c1cc(S(=O)(=O)O)ccc1O,0%
CC(=O)c1ccc(OC(C)C)c(CSc2nc(O)cc(=O)[nH]2)c1,0%
COC(=O)C(C)Sc1nnc(SC(C)C(=O)OC)s1 (centres undefined),9%
Cc1ccc(Cn2c3ccccc3c3cn[nH]c(=O)c32)cc1,-18%
O=[N+]([O-])c1cc(Cc2cc([N+](=O)[O-])c3cccnc3c2O)c(O)c2ncccc12,7%[5.75 µM]
NC(=O)CSc1nnc(-c2ccoc2)o1,13%
COc1ccc(F)cc1S(=O)(=O)n1cc(C)nc1-c1ccccc1,-7%
COc1ccc(C(=O)N2CCCc3ccccc32)cc1,15%
CCC(c1nnnn1C(C)C)N1CCN(C2CCCC2)CC1 (centres undefined),-11%
CC(CP(=O)(O)O)NC(=O)Cc1ccccc1 (centres undefined),-22%
CCc1nc(N2CCC(C)CC2)c2oc3ccccc3c2n1,46%
O=C(O)c1cc(C(=O)O)c(-c2ccccc2)c(C(=O)O)c1,-14%

# Given tab-delimited: 4 of the compounds above
smiles	AmpC nodet inh
Cc1ccc(Cn2c3ccccc3c3cn[nH]c(=O)c32)cc1	-18%
O=[N+]([O-])c1cc(Cc2cc([N+](=O)[O-])c3cccnc3c2O)c(O)c2ncccc12	7%[5.75 µM]
NC(=O)CSc1nnc(-c2ccoc2)o1	13%
COc1ccc(F)cc1S(=O)(=O)n1cc(C)nc1-c1ccccc1	-7%

# More records follow.
SMILES,AmpC nodet inh
COC(=O)CSc1ncc(C#N)c(N)n1,-8%
COc1cccc(OCC(=O)Nc2ccccc2NC(C)=O)c1,5%
CCCCn1c(O)c(C=Nc2c(C)n(C)n(-c3ccccc3)c2=O)c(=O)[nH]c1=O,8%
CCOC(=O)N1CCN(S(=O)(=O)c2ccc(F)cc2)CC1,-3%
CCCCN(C)C(=O)C1CCC(=O)N(c2cc(OC)c(OC)c(OC)c2)C1c1ccc(OC)cc1 (centres undefined),103%
CC1CCN(S(=O)(=O)Cc2ccccc2Cl)CC1,-4%
O=C(O)CSc1ccn(Cc2ccccc2)c1,6%[5.75 µM]
Clc1ccc(CSc2ncn[nH]2)cc1,-3%
O=C(Nc1cccc(F)c1)N1CCCC2(CCN(C(=O)c3cccc(F)c3)CC2)C1,53%
COc1ccccc1CNC(=O)CCNC(=O)Cn1ccc2ccccc2c1=O,6%
Cc1c(C(=O)COC(C)(C)C)[nH]c2ccccc12,6%
COCCN1Cc2cccc(C(=O)NCc3ccccc3OC)c2C1=O,30%
Cc1ccnc(N2CCC(C(=O)NC3CCCCCC3)CC2)n1,20%
O=C1c2ccccc2C(=O)N1Cc1nc2ccccc2c(=O)n1-c1ccccn1,17%
N=c1c(C(=O)NCc2ccco2)cc2c(=O)n3ccccc3nc2n1Cc1ccccc1,46%
Cc1ccc2c(c1)c1c(n2CC2COC(C)(C)O2)C(=O)CCC1 (centres undefined),79%
O=C(C1CCN(C2CC(=O)N(c3cccc(Cl)c3)C2=O)CC1)N1CCCC1 (centres undefined),48%
ClCCBr,-4%
